Screening data deposited in PubChem by several laboratories.
HSV replic up: enhancers of HSV replication in host cells, fold increase, host cell viability; maximum fold increase; HSV replication augmentation in cells; 220,000 compounds, 0.005% hits;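 active = peak rise of 1.5-fold or more in the series; inconclusive = self-fluorescent or not available for retest; tested in PC3 cells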;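 note: first round at 10 µM; read as green reporter fluorescence; hits show the peak of a series up to 25 µM; 1 = signal of infected wells without compound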
Insulin prom inh: inhibitors of insulin promoter-driven GFP, primary screen, imaging, TRM-6 cells (human fetal islet line), eGFP reporter, cell count; 130,000 compounds, 0.9% hits; reporter expression induced with tamoxifen; AID 1273, 2008; inhibition, % at 2 µM;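 active = inhibition above the mean plus 3 SD, with well images judged a real hit on visual review, cut at about 60% in these data, passing the limit was not always enough; inconclusive = inhibition over the cutoff but images rejected on review; inactive = inhibition not above the cutoff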
GALR2 agonist: GALR2 receptor agonists, primary screen, cell-based; Galanin receptor type 2 (Homo sapiens), O43603; GALR2-expressing cells, agonist activation read-out; activation, %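 (tested at 5 µM)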; 140,000 compounds, 0.48% hits; AID 803, 2007;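 active = above mean plus 3 SD of all compounds, about 5% in these data, not always enough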;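 note: 0% = vehicle buffer wells and 100% = reference agonist at full effect; tested in CHO reporter cells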
Target sequence (O43603 whole entry, looked up): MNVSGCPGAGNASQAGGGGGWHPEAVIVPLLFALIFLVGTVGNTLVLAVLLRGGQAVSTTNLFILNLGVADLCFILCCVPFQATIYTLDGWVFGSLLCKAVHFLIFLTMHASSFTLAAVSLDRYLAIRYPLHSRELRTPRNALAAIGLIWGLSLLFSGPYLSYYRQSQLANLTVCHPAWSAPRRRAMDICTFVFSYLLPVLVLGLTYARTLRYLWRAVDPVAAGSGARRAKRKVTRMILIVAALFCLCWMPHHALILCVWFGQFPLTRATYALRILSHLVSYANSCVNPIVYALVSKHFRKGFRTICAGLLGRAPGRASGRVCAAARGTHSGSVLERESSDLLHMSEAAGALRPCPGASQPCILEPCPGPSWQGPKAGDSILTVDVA
PKD1 kinase inh: inhibitors of human PKD1 kinase, biochemical, fluorescence polarization | AID 797, 2007 | inhibition, %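 (about 10 µM by stock and volumes)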 | 200,000 compounds, 0.056% hits | PKD1 kinase fluorescence polarization assay;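 active = inhibition of 50% or more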;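 note: controls were vehicle for no effect and a reference inhibitor for full effect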
RGS16-Gao HTS: modulators of RGS16 binding to Galphao, primary screen, biochemical, human proteins, multiplexed bead flow cytometry; Regulator of G-protein signaling 16 (Homo sapiens) + Guanine nucleotide-binding protein …; bead-based flow cytometry RGS16-Galphao binding, fluorescence; actives lie on both sides; binding response (% of control), % at 10 µM; 220,000 compounds, 0.38% hits; AID 1441, 2008;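 active = below 25% or above 175%, edge rows of some plates excepted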;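 note: Galphao activated by GDP with aluminum fluoride before binding; 100% = wells without compound and 0% = beads without RGS; some results beyond the cut were filed as inactive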
Target sequence (O15492 whole entry, looked up): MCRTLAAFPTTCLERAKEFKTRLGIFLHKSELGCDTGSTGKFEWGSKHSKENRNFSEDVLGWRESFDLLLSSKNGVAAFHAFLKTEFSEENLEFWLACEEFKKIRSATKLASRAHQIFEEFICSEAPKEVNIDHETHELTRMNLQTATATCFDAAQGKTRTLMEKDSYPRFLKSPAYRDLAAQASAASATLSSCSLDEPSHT
Target sequence (P09471 whole entry, looked up): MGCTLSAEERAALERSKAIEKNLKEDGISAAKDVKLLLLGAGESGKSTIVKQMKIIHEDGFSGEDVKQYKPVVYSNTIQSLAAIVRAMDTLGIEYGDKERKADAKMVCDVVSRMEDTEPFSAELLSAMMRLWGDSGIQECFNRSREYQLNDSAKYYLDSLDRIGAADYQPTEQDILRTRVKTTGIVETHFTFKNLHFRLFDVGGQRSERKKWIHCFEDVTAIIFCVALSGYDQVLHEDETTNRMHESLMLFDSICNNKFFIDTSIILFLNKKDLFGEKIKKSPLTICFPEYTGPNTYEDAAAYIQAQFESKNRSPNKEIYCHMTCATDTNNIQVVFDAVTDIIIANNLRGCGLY
Insulin prom inh cell count: recorded beside Insulin prom inh, whose call it bears; normalized cell count, %; measured here: cell count, toxicity; reference of the scale not given here;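 cells exposed to compound for 48 h; stained nuclei by imaging scaled within each plate; lower means fewer cells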
HSV replic up primary fold: further read-out of HSV replic up, marked with its call; fold increase; compound at 10 µM; measured here: primary screen fold increase 10 uM; tested in PC3 cells;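 GFP signal in the first replicate; 1 = infected wells without compound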
* hit, by the source's call; i = inactive; ? = inconclusive; · = no result given.

Molecule	HSV replic up	HSV replic up primary fold	Insulin prom inh	Insulin prom inh cell count	GALR2 agonist	PKD1 kinase inh	RGS16-Gao HTS
Cc1ccc(C(=O)NC(C)c2ccccc2)cc1Br (configuration not stated)	·	·	-46	95	-1.5	-1	103
COc1cccc(NC(=O)c2cccc(OC)c2OC)c1	i	0.79	-348	63	-1.1	-7	99
O=C(Nc1nnc(N2CCCCCC2)s1)c1cc(-c2ccc(Br)cc2)on1	i	1	·	·	-2.6	-11	101
Cc1ccc(N2OC3C(=O)NC(=O)C3C2c2ccco2)cc1 (configuration not stated)	i	0.99	·	·	-0.3	10	100
Cc1ccc(CNC(=O)c2sc3ccc(S(=O)(=O)N4CCCCC4)cc3c2N)cc1	i	0.95	·	·	-0.8	-16	105
Cc1cccc(OCCCCCNCCO)c1	i	1.2	·	·	-1.3	-7	·
CCCc1ncc(C(O)(c2ccccc2)c2ccc(C)cc2)n1C (configuration not stated)	i	0.85	20	113	-1.1	1	102
Cc1ccc(-n2c(Cl)c(Cl)nc(Cl)c2=O)cc1	i	0.56	-233	21	1.6	4	114
COC(=O)[C@H](C)[C@@H]1C[C@@]1(C)[C@@H](NC(=O)OCc1ccccc1)c1ccccc1	i	1	0	121	-1.8	-4	103
O=C(Cc1coc2ccc3ccccc3c12)N1CCc2ccccc21	i	0.84	-27	131	0.1	0	96
O=C(Nc1ccc(C2CC2(Cl)Cl)cc1)c1ccccc1Br (configuration not stated)	i	1.1	33	135	-1.6	0	106
O=C(Cn1cc(C(F)(F)F)ccc1=O)N/N=C/c1ccc(Cl)c(Cl)c1	i	0.85	·	·	-0.5	7	105
O=C(Cn1cnc2c(oc3ccccc32)c1=O)NCC1CCCO1 (configuration not stated)	i	0.83	-18	138	-1.1	-15	103
Cc1cc(-c2nnc3n2N=C(c2ccc(F)cc2)CS3)n[nH]1	i	0.97	·	·	·	·	106
CCOc1cc(S(=O)(=O)NCc2ccc3c(c2)OCO3)c(C)cc1C	i	0.99	-141	85	0.4	-9	101
Fc1ccc(Nc2nc(-c3ccncc3)nc3ccccc23)cc1	i	0.89	·	·	-0.8	4	101
COc1ccc2c(c1)Sc1ccccc1N2	i	0.81	·	·	·	-4	102
COC(=O)c1ccc(CSc2nnnn2C)o1	i	1	·	·	0.0	-7	99
CSC[C@@H]1NC(=S)N(c2ccc(C)cc2)C1=O	i	0.77	15	93	0.5	-5	98
Cn1c(CCNC(=O)c2ccc(F)cc2)nc2ccccc21	i	0.92	·	·	-2.1	2	105
CN(C1CCCCC1)S(=O)(=O)c1ccc(NC(=O)Cn2nc(-c3ccc(F)cc3)ccc2=O)cc1	i	1	33	166	-0.2	-2	86
CCCCN=c1sc(C(=O)OC)cc(=O)n1CCCC	i	0.99	·	·	-1.8	-4	105
O=C(COC(=O)c1ccc(N2CCCC2=O)cc1)NCc1ccco1	i	1	·	·	-0.9	-1	103
CC(C)(C)NC(=O)N1CCC(CO)(Cc2ccccc2Cl)CC1	i	0.94	·	·	·	-3	94
N/C(=N\OC(=O)C(c1ccccc1)c1ccccc1)c1ccccn1	i	1.2	0	108	-1.9	-7	124

Single records, as listed above. Values in the order: HSV replic up, HSV replic up primary fold, Insulin prom inh, Insulin prom inh cell count, GALR2 agonist, PKD1 kinase inh, RGS16-Gao HTS
`CCCCN=c1sc(C(=O)OC)cc(=O)n1CCCC` across the screens: i, 0.99, ·, ·, -1.8, -4, 105
`COc1ccc2c(c1)Sc1ccccc1N2` across the screens: i, 0.81, ·, ·, ·, -4, 102

The listing continues.
Molecule	HSV replic up	HSV replic up primary fold	Insulin prom inh	Insulin prom inh cell count	GALR2 agonist	PKD1 kinase inh	RGS16-Gao HTS
CCOc1ccc(Cn2nnc(C(=O)NCCc3ccccc3)c2N)cc1	i	1.1	·	·	-2.2	-10	103
Cc1[nH]n(-c2ncc(-c3ccccc3)s2)c(=O)c1C(c1ccc(Cl)cc1)C(C#N)C#N (configuration not stated)	i	1.1	·	·	-1.1	-6	99
Cc1ccc2[nH]c(=O)c3cc(C(=O)NCCN4CCN(C)CC4)sc3c2c1	i	0.95	·	·	-2.5	-11	119
COC/C=C/C1=CC2=CC(=O)C(C)(OC(=O)c3cnc4ccccc4n3)C(=O)C2=CN1CCCOC(C)C (configuration not stated)	i	1	·	·	·	·	100
COCCNC(=O)/C(C#N)=C/c1cc(C)n(-c2ccc(C)cc2)c1C	i	0.88	10	121	·	1	103
O=C(Nc1ccccc1-c1ccccc1)C12CC3CC(CC(C3)C1)C2	i	1.1	13	65	0.1	-11	102
CCOC(=O)CSc1ncnc2c1cnn2-c1ccc(Cl)cc1	i	0.92	·	·	-0.2	-14	72
COc1ccc(/C(N)=N/OC(=O)CCc2ccccc2)cc1OC	i	0.83	·	·	·	-2	99
Cc1c(Cc2ccc3c(c2)OCO3)sc(NC(=O)c2ccc3ccccc3c2)c1C(N)=O	i	0.96	-20	117	1.6	-9	11*
Cc1cc(C)cc(N(CC(=O)NC2CCCC2)C(=O)C2(C)CC(=O)N=C3C=CC=CN32)c1 (configuration not stated)	i	0.88	·	·	·	2	108
O=c1cc(-c2ccc3c(c2)OCO3)oc2ccccc12	i	0.67	·	·	-0.6	12	88
Cc1ccc(-c2csc(NC(=O)c3ccc(C)o3)n2)cc1	i	0.97	-14	124	-0.9	-14	127
CC(=O)OCC1=C(C(=O)O)N2C(=O)C(NC(=O)c3ccc(COc4cccc(Cl)c4Cl)o3)C2SC1 (configuration not stated)	i	0.93	42	113	·	-6	104
COC(=O)c1ccc(C2c3c(oc4ccccc4c3=O)C(=O)N2CCCN2CCOCC2)cc1 (configuration not stated)	·	·	·	·	-0.7	5	145
CCCCCCN1C(=O)C(O)=C(C(C)=O)C1c1ccccc1[N+](=O)[O-] (configuration not stated)	i	1.1	·	·	·	-3	100
O=C(Nc1cc(Cl)cc(Cl)c1)c1coc(=O)c(Br)c1	i	1.2	·	·	·	·	98
Cc1ccc(-n2ncc3c(=O)n(CC(=O)OCc4ccccc4)cnc32)cc1	i	0.89	·	·	-0.4	-6	102
CN1CCN(C(=O)C2(NC(=O)NCc3ccccc3)CCCCC2)CC1	i	1	-46	116	-1.4	11	108
CC(C)C[C@H](NC(=O)NCc1ccc(F)cc1)C(=O)O	i	0.92	·	·	·	·	98
Cc1nn(-c2ccccc2)c(N2CCCC2)c1/C=N/NC(=O)c1cc2ccccc2cc1O	i	1.1	·	·	-0.3	2	101
CCCCS/C(=C(/C#N)C(N)=O)c1cc2c([nH]1)CCCC2	i	0.84	-23	124	-1.9	5	101
COc1ccccc1CC(=O)Nc1ccccc1C(=O)O	i	1.1	·	·	-1.9	-3	102
NC(=S)N/N=C/c1coc2ccc(F)cc2c1=O	i	0.96	·	·	·	·	96
CCOC1(c2ccccc2)OC(=O)c2ccccc21 (configuration not stated)	·	·	-67	94	0.5	-7	108
Brc1ccc(CNCc2cccs2)cc1	·	·	58	109	-1.2	-12	110
COc1ccc(C(=O)OCC(=O)NCc2ccccc2)c(OC)c1OC	i	0.88	·	·	·	0	95
COn1c(=O)c(-c2cccs2)[n+]([O-])c2ccccc21	i	0.96	-87	84	-0.2	-6	94
CC(C)CCn1c(SCc2ccc(Cl)cc2)nc2c1c(=O)[nH]c(=O)n2C	i	0.61	-8	113	1.4	-17	85
CCSC1(SCC)N=C(N)C2(C#N)C(c3ccccc3)NC3=C(CCC3)C12C#N (configuration not stated)	i	0.98	-10	71	-1.0	-11	106
Cc1cccc(C)c1NC(=O)COC(=O)CCC(=O)c1cccs1	i	1.1	17	73	·	-3	78
COc1ccc(OC)c(S(=O)(=O)NCc2ccccc2)c1	i	0.72	·	·	-0.2	-3	102
COC(=O)CSc1nc2sc3c(c2c(=O)n1-c1ccccc1)CCN(C)C3	i	0.66	38	137	-1.2	0	100
CCOc1ncccc1C(=O)Nc1ccccc1C(=O)NCc1ccc2c(c1)OCO2	i	1.1	·	·	·	·	104
O=C(Nc1c(C(=O)O)oc2ccc(Br)cc12)c1ccccc1	i	0.99	·	·	-3.8	1	109
Nc1ccc2nc3c(=O)n(CCc4ccccc4)c(=O)[nH]c3nc2c1	?	·	·	·	·	·	101
COc1cc(/C=N/NC(=O)Cn2nnc3ccccc32)ccc1O	i	0.9	43	108	·	-4	111
COc1cc(C(=S)N2CCOCC2)cc(OC)c1OC	i	0.94	·	·	·	·	95
O=C(NCCCn1ccnc1)/C(=C\c1cccnc1)NC(=O)c1ccco1	i	0.91	-38	182	·	-7	106
CCCNc1nc2ccccc2c(=O)[nH]1	i	0.92	·	·	·	5	99
CC1CCc2sc(C(=O)NCc3ccc(F)cc3)cc2C1 (configuration not stated)	i	0.92	7	174	-2.1	1	100
CCN1CCN(C(CNC(=O)c2ccc3c(c2)OCO3)c2cccnc2)CC1 (configuration not stated)	i	1.1	·	·	-2.2	-10	106
Cc1cccc(C)c1NC(=O)c1cc(-c2ccccn2)nc2ccccc12	i	0.86	-33	100	·	-4	107
CCOC(=O)c1sc(NC(=O)C2CC2)cc1C	i	0.91	·	·	-1.7	2	100
CCCN1C(=O)/C(=C/c2ccc(N3CCCC3)c(C)c2)NC1=S	?	·	-92	72	-1.5	3	118
CCOC(=O)N1CCN(C(=O)c2ccccc2NC(C)=O)CC1	i	1	-4	94	·	-7	99
COC(=O)c1ccc(NC(=O)C2CCN(C(=O)c3cc(OC)c(OC)c(OC)c3)CC2)cc1	i	1.2	6	134	-0.8	2	·
CCCN(CCC)S(=O)(=O)c1ccc(C(=O)Nc2nc(-c3ccccc3)c(C(=O)OCC)s2)cc1	i	0.98	·	·	-0.5	6	100
CCc1ccc(-n2c(SCC(=O)Nc3ccc(C(=O)O)cc3)nnc2-c2ccncc2)cc1	i	1.1	·	·	·	·	94
Cc1ccc(C2c3c(C)nn(-c4ccc([N+](=O)[O-])cc4)c3N=C3C(=O)Nc4ccccc4N32)cc1 (configuration not stated)	i	0.98	·	·	·	-3	98
COc1cccc(C(=O)Nc2ccc(F)cc2F)c1	i	0.97	-42	66	0.8	2	101

Later entries
Molecule	HSV replic up	HSV replic up primary fold	Insulin prom inh	Insulin prom inh cell count	GALR2 agonist	PKD1 kinase inh	RGS16-Gao HTS
CN(C(=O)COC(=O)c1cccc(NS(=O)(=O)c2ccc(F)c(F)c2)c1)C1CCS(=O)(=O)C1 (configuration not stated)	i	0.99	·	·	·	-1	124
COc1ccc(Cl)cc1N1C(=O)/C(=C\c2sccc2C)N=C1SCC(=O)NC1CC1	i	0.82	·	·	-0.7	-5	95
Cc1nnc(SCC(=O)N2CC(=O)Nc3ccccc32)n1-c1ccccc1	i	1	23	127	-1.3	-9	98
CN(Cc1ccccc1)C(=O)C1CCN(S(C)(=O)=O)CC1	i	0.88	-27	134	·	-2	99
Cc1ccccc1NC(=O)NC(N)=O	i	0.98	·	·	·	-4	104
O=S(=O)(c1ccc(Br)cc1)c1cnc2ccccc2n1	·	·	23	92	·	-2	101
CCC(O)CNc1nc(SC)nc2sc3c(c12)CCN(C)C3 (configuration not stated)	i	1.1	·	·	-2.4	-9	114
Cc1ccc(C(=O)O)cc1N1CCCC1=O	i	0.94	·	·	·	-4	100
CO/C=C\C=C/c1nnn(-c2ccc(Cl)cc2)n1	i	0.9	·	·	-1.1	-2	88
Cc1ccc(N/N=C/c2c(C)c(C#N)c(=O)n(C)c2O)cc1C	i	1.3	·	·	·	-13	102
COC(=O)[C@@H]1C[C@@]2(O)[C@@H](O)[C@@H](O)[C@@H](O)C[C@H]2N1CC1CCCCC1	i	1.1	·	·	·	·	108
Cc1ccc(OCC(=O)NC(=S)Nc2cccc(NC(=O)c3ccccc3Cl)c2)cc1	i	0.98	33	107	-2.3	-7	102
O=C(COc1ccccc1[N+](=O)[O-])Nc1ccc2c(c1)OCO2	i	1	·	·	·	-4	95
CCOC(=O)c1cc(-c2cccnc2)nn1-c1ccccn1	i	0.71	12	86	-0.7	3	101
O=C(CCN1CCOCC1)Nc1cccc(Br)c1	i	0.98	·	·	-0.7	-6	92
COc1cc(/C=C(\C#N)C(=O)NCC2CCCO2)ccc1OCCC(C)C (configuration not stated)	i	1.1	·	·	·	·	83
